# EPAC2 ant val – Validation qHTS for antagonist of cAMP-regulated guanine nucleotide exchange factor 4 (EPAC2); hit rate 1.7% among 16,000; Rap guanine nucleotide exchange factor 4 (Homo sapiens), Q8WZA2; AID 1645886, 2021; EPAC2 Rap1B BODIPY-GDP exchange, fluorescence; Potency, µM (highest dose often 112 µM), inactives show at the highest dose activity, negative = inhibition, most hits filed as inhibitors; active = well fitted inhibition curve with a large enough effect; inconclusive = small, poorly fitted or top-dose-only effect; inactive = no such curve, though single readings can be large or run the other way;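 note: 100% = activation by cAMP agonist control; nearly all actives have a fitted effect of over 40% in size; the record reuses the description of the EPAC1 agonist screen; inactives centre near -10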
# Target sequence (Q8WZA2 whole entry, looked up): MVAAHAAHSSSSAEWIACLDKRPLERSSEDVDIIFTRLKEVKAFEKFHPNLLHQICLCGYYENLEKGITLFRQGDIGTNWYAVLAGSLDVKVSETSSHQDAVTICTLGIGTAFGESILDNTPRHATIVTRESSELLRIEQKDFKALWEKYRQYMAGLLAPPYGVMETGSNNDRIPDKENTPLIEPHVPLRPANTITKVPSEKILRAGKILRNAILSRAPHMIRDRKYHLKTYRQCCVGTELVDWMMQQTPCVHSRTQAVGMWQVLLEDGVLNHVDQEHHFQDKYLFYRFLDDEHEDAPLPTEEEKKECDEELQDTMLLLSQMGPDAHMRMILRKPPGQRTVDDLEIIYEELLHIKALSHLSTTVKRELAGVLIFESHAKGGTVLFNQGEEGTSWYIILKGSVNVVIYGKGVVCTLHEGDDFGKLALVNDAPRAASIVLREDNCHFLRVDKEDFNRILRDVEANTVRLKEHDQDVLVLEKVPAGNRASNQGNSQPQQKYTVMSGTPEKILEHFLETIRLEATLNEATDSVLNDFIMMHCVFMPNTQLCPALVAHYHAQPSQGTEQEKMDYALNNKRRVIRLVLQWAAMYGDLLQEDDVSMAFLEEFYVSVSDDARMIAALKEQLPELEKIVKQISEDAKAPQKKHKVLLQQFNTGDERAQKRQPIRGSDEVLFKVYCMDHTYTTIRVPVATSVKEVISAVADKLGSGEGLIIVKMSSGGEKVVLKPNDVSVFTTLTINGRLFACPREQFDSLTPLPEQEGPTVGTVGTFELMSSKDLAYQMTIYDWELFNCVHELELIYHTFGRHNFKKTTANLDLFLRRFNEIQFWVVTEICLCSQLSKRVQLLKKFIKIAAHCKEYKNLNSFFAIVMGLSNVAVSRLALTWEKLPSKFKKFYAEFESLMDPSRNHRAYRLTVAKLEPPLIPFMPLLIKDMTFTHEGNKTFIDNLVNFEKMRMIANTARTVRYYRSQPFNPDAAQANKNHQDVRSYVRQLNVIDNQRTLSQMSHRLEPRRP
#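 Fluorescent exchange read-out: 100 nM EPAC2 with 250 nM RAP1B–BODIPY-GDP and 50 uM GDP; BODIPY-GDP release lowers fluorescence. Read at 480/540 nm every 5 min for 30 min at room temperature; normalized to 6.5 mM cAMP.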
# * marks the source's active call; other numbers are inactive results; ? = inconclusive; & = joins results of further samples; [ ] = another dose, or the depositor's remark. Potency is the fitted concentration of half-maximal effect. Only part of the results is shown; rates above refer to the full screens.
SMILES,EPAC2 ant val
CCCCN(CC)c1c([N+](=O)[O-])cc(C(F)(F)F)cc1[N+](=O)[O-],-33%
O=C1CC[C@@]2(O)[C@H]3Cc4ccc(O)c5c4[C@@]2(CCN3CC2CC2)[C@@H]1O5,-14%
C=CCN1C[C@@H](C)N([C@H](c2ccc(C(=O)N(CC)CC)cc2)c2cccc(OC)c2)C[C@@H]1C,-10%
Oc1ccc2c3c1O[C@H]1c4[nH]c5ccccc5c4C[C@@]4(O)C(C2)N(CC2CC2)CCC314 (stereo not given in full),-9%&-19%
CC(=O)OO,-3%
CC(=O)OC1C2C(OC(=O)Cc3ccccc3)C(C)CC2(OC(C)=O)C(=O)/C(C)=C/C2C(CC[C@@]13CO3)C2(C)C (stereo not given in full),?
O=C(CN1CCCCC1)c1ccccc1,-6%
ClC1=C(Cl)C2(Cl)C3C4C=CC(C4)C3C1(Cl)C2(Cl)Cl (stereo not given),-12%
CNNC,4%
CCc1cc(OC)c(C[C@@H](C)N)cc1OC,-3%[239 µM]
C[C@@H](N)Cc1cnc[nH]1,0%&-7%&-20%
COc1cc2c(cc1OC)-c1c(OC)c(OC)c(CO)c3c1C(C2)N(C)CC3 (stereo not given),-15%

# Brought forward from above: 2 compounds; new compounds follow.
SMILES,EPAC2 ant val
C[C@@H](N)Cc1cnc[nH]1,0%&-7%&-20%
COc1cc2c(cc1OC)-c1c(OC)c(OC)c(CO)c3c1C(C2)N(C)CC3 (stereo not given),-15%
CN1CCN(C(=O)O[C@@H]2c3nccnc3C(=O)N2c2ccc(Cl)cn2)CC1,-15%
Nc1ncn[nH]1,-11%
Clc1ccc(COC(Cn2ccnc2)c2ccc(Cl)cc2Cl)cc1 (stereo not given),?
COC1C(O)C(OC2CC[C@]3(C=O)C4C(OC(C)=O)C[C@@]5(C)C(C6=CC(=O)OC6)CC[C@]5(O)C4CC[C@]3(O)C2)OC(C)C1OC(C)=O (stereo not given in full),-7%
O=C1C=CC(=O)C=C1,9%
NC(CCCCCP(=O)(O)O)C(=O)O (stereo not given),8%
CSc1nc(NC(C)C)nc(NC(C)C)n1,-24%
O=C(Oc1ccccc1)N1CCC2(CCN(Cc3ccncc3)CC2)CC1,-19%
OCCCBr,51%[activator][239 µM]
Oc1cc(Cl)c(Cl)cc1Cl,-22%
O=[N+]([O-])c1ccc(O)c([N+](=O)[O-])c1,-21%
NCC(CP(=O)(O)O)c1ccc(Cl)cc1 (stereo not given),-22%&1%
CCOC(=O)c1ncn2c1[C@@H]1CCCN1C(=O)c1cc(OC)ccc1-2,-21%
Cc1nnc2n1-c1ccc(Cl)cc1C(c1ccccc1)=NC2,7%
COc1ccc(CNC(=O)/C=C\c2ccc3[nH]cc(CCN(C)C)c3c2)cc1,-10%
NCc1cccnc1,-8%
CC(Cc1ccccc1)NCc1ccccc1Cl (stereo not given),-41%
NCC1(CC(=O)O)CCCCC1,?
c1ccc(CCN2CCOCC2)cc1,-8%
COc1ccc(NC(=O)N2CC[C@@]3(CCCN(C(=O)Oc4ccccc4)C3)C2)cc1,-16%
CC[C@H]1C[C@@H]2C[C@H]3c4[nH]c5ccc(OC)cc5c4CCN(C2)[C@@H]13,15%[239 µM]
COc1ccc(C(c2ccc(OC)cc2)C(Cl)(Cl)Cl)cc1,?
CS(=O)(=O)Nc1ccc(Cc2noc(-c3ccc4[nH]cc(CCN)c4c3)n2)cc1,-8%&-20%
CC1Cc2ccccc2CN1 (stereo not given),-10%

# A stretch from the list above, for reference:
SMILES,EPAC2 ant val
O=C(Oc1ccccc1)N1CCC2(CCN(Cc3ccncc3)CC2)CC1,-19%
OCCCBr,51%[activator][239 µM]

# Back to the main list, starting 6 compounds before the break.
SMILES,EPAC2 ant val
c1ccc(CCN2CCOCC2)cc1,-8%
COc1ccc(NC(=O)N2CC[C@@]3(CCCN(C(=O)Oc4ccccc4)C3)C2)cc1,-16%
CC[C@H]1C[C@@H]2C[C@H]3c4[nH]c5ccc(OC)cc5c4CCN(C2)[C@@H]13,15%[239 µM]
COc1ccc(C(c2ccc(OC)cc2)C(Cl)(Cl)Cl)cc1,?
CS(=O)(=O)Nc1ccc(Cc2noc(-c3ccc4[nH]cc(CCN)c4c3)n2)cc1,-8%&-20%
CC1Cc2ccccc2CN1 (stereo not given),-10%
C[C@]12CC[C@H](O)C[C@H]1CC[C@@H]1[C@@H]2CC[C@]2(C)[C@@H](c3ccc(=O)oc3)C[C@H]3O[C@]132,-5%
CC[C@H](C)[C@H](NC(=O)[C@H](CCCN=C(N)N)NC(=O)[C@H](CCCN=C(N)N)NC(=O)[C@H](CC(C)C)NC(=O)[C@H](Cc1ccccc1)NC(=O)CNC(=O)CNC(=O)[C@@H](N)Cc1ccc(O)cc1)C(=O)N[C@@H](CCCN=C(N)N)C(=O)N1CCC[C@H]1C(=O)N[C@@H](CCCCN)C(=O)N[C@@H](CC(C)C)C(=O)N[C@@H](CCCCN)C(=O)O,-9%[11.4 µM]
C=CCN1C[C@H](C)N([C@H](c2ccc(C(=O)N(CC)CC)cc2)c2cccc(O)c2)C[C@H]1C,-19%
NC(=O)CN1CC(O)CC1=O (stereo not given),?
COc1ccc(C(=O)O[C@H]2CC[C@@]3(C)C4CCC5[C@]6(O)C[C@H](O)[C@@]7(O)C(CN8C[C@@H](C)CC[C@H]8[C@@]7(C)O)[C@]6(O)C[C@@]53O[C@@]42O)cc1OC (stereo not given in full),8%&-7%
Clc1ccc(CCC(Cn2ccnc2)Sc2c(Cl)cccc2Cl)cc1 (stereo not given),-22%[56.6 µM]
O=[N+]([O-])c1ccc([As](=O)(O)O)cc1,-1%
CC1=NCCc2c1[nH]c1cc(O)ccc21,463%[activator]
CC(C)CN1CCCC2(CCN(C(=O)Oc3ccccc3)CC2)C1,-26%
CN1CC[C@@]2(CCCN(C(=O)c3ccncc3)C2)C1,-15%
COc1cc2c(cc1OC)-c1c(O)c(OC)cc3c1[C@H](C2)N(C)CC3,50%[activator]
CN1[C@@H]2CC[C@H]1CC(OC(c1ccc(F)cc1)c1ccc(F)cc1)C2 (stereo not given in full),-20%

# Some values from the results shown:
# Reading for C[C@]12CC[C@H](O)C[C@H]1CC[C@@H]1[C@@H]2CC[C@]2(C)[C@@H](c3ccc(=O)oc3)C[C@H]3O[C@]132 under EPAC2 ant val: -5%
# Reading for CN1CC[C@@]2(CCCN(C(=O)c3ccncc3)C2)C1 under EPAC2 ant val: -15%

# (next part)
SMILES,EPAC2 ant val
C=C[C@H]1CN2CCC1C[C@@H]2C(O)c1ccnc2ccccc12 (stereo not given in full),-15%
CC1=CC(=O)C2=C(C)C[C@H](O)[C@H]3[C@H](C)C(=O)O[C@@H]3C12 (stereo not given in full),-6%
O=C1CC[C@@]2(O)[C@H]3Cc4ccc(O)c5c4[C@@]2(CCN3CC2CC2)[C@H]1O5,-3%
CN(C(=O)Cc1ccc(Cl)c(Cl)c1)[C@@H](CN1CCCC1)c1cccc(OCC(=O)O)c1,-19%
CC[n+]1c(-c2ccccc2)c2cc(N)ccc2c2ccc(N)cc21,28%&-7%
Oc1ccc(Cl)cc1,?
C=C1C2C[C@]3(C4CC5[C@@]6(C)CC[C@H](O)[C@@]5(C3CC2=O)C4[N+]([O-])(CC)C6)[C@@H]1O (stereo not given in full),-4%
CCc1cc2c(s1)-n1c(C)nnc1CN=C2c1ccccc1Cl,4%
C[C@@H]1CC[C@H]2[C@@H](C)C(=O)O[C@@H]3O[C@@]4(C)CC[C@@H]1[C@]32OO4,13%
O=C(CCCN1CCC2(CC1)C(=O)NCN2c1ccccc1)c1ccc(F)cc1,-20%
COc1cc(CCN)ccc1O,-8%
c1ccc(N2CCC3(CCNCC3)CC2)cc1,-20%
CC(=O)O[C@H]1C[C@H](O[C@H]2[C@@H](O)C[C@H](O[C@H]3[C@@H](O)C[C@H](OC4CC[C@@]5(C)C(CC[C@@H]6[C@@H]5CC[C@]5(C)[C@@H](C7=CC(=O)OC7)[C@@H](O)C[C@]65O)C4)O[C@@H]3C)O[C@@H]2C)O[C@H](C)[C@H]1O[C@@H]1O[C@H](CO)[C@@H](O)[C@H](O)[C@H]1O (stereo not given in full),-6%
O=C1CS[C@@H](c2ccccc2Cl)c2cc(Cl)ccc2N1,32µM*
CC(C)NC(C)C,-4%
Oc1ccc2c3c1O[C@H]1c4c(c5ccccc5n4Cc4ccccc4)C[C@@]4(O)C(C2)N(CC2CC2)CC[C@]314,-13%
C=C[C@H]1CN2CC[C@H]1C[C@@H]2[C@@H](O)c1ccnc2ccccc12,1%
CC(C)(c1ccc(OCC2CO2)cc1)c1ccc(OCC2CO2)cc1 (stereo not given),-44%[151 µM]
CC(C)(O)[C@@H]1[C@H]2OC(=O)[C@@H]1[C@]1(O)C[C@H]3O[C@]34C(=O)O[C@H]2[C@]14C,9%&-2%
CN1CC[C@]23c4c5ccc(O)c4O[C@H]2[C@@H](O)CC[C@H]3[C@H]1C5,30%[239 µM]
Oc1cc2c(cc1O)[C@H]1c3ccccc3CN[C@H]1CC2,-11%&-17%
c1cnc(N2CCCC3(CCNCC3)C2)nc1,-17%
CCNC(=O)[C@H]1O[C@@H](n2cnc3c(N)ncnc32)[C@H](O)[C@@H]1O,2%
C/C(=C\[C@@H](N)C(=O)O)CP(=O)(O)O,29%
COc1cc2c(cc1OC)[C@]13CCN4CC5=CCOC6CC(=O)N2[C@@H]1[C@@H]6C5C[C@@H]43 (stereo not given in full),-9%
OCCOc1ccccc1,-18%&11%
c1cc2c(cc1C1OC[C@@H]3C(c4ccc5c(c4)OCO5)OCC13)OCO2 (stereo not given in full),-13%
COC1=CC2C3Cc4ccc(OC)c(O)c4[C@]2(CCN3C)CC1=O (stereo not given in full),-9%
O=[N+]([O-])c1ccc2nc(N3CCNCC3)ccc2c1,-18%&1%
C=CCC1=C(C)C(OC(=O)C2C(C=C(C)C)C2(C)C)CC1=O (stereo not given),-29%[239 µM]
C[C@@H]1O[C@@H](O[C@@H]2C=C3CC[C@@H]4[C@H](CC[C@]5(C)[C@@H](c6ccc(=O)oc6)CC[C@]45O)[C@@]3(C)CC2)[C@H](O)[C@H](O)[C@H]1O,-4%[56.6 µM]
CCc1cccc(CC)c1N(COC)C(=O)CCl,-23%
COc1ccc(/C=C/c2cc(O)cc(O)c2)cc1,-10%
CCCN1CCO[C@@H]2c3cc(O)ccc3OC[C@@H]21,-22%
O=C(O)CCC1NCC2CC1CN1CCCCC21 (stereo not given),-14%
C=CCN1CC[C@]23c4c5ccc(O)c4OC2C(=O)CC[C@]3(O)C1C5 (stereo not given in full),-15%
CC(=O)OCC1=C(C(=O)O)N2C(=O)[C@@H](N)[C@H]2SC1,12%[56.6 µM]
Cc1cccc(C)c1NC1=NCCCS1,16%&-35%&6%
C=CCN1C[C@H](C)N([C@@H](c2ccccc2)c2ccc(C(=O)N(CC)CC)cc2)C[C@H]1C,-17%
CCC1(c2ccccc2)C(=O)NC(=O)N(C(=O)c2ccccc2)C1=O (stereo not given),-8%
CC(C)N(C(=O)CCl)c1ccccc1,?
C[C@H]1C(=O)O[C@@H]2CCN3CC=C(COC(=O)[C@](C)(O)[C@]1(C)O)[C@H]23,33%[activator]
O=[N+]([O-])/C=C/c1ccc2c(c1)OCO2,7%
COC1=CC(=O)OC(/C=C/c2ccccc2)C1 (stereo not given),-2%[239 µM]
COC(=O)COc1cc(Cl)c(Cl)cc1Cl,?
CCON=O,?
C[C@]12CCC3C(CC[C@H]4C[C@H](O)CC[C@]34C)[C@@H]1CC[C@@H]2C(=O)CO (stereo not given in full),2%
O=C1CN=C(c2ccccc2)c2cc(Cl)ccc2N1CC1CC1,22µM*

# Source: PubChem (National Center for Advancing Translational Sciences (NCATS))
